Screening data from PubChem BioAssay.
HPGD inh: qHTS Assay for Inhibitors of HPGD (15-Hydroxyprostaglandin Dehydrogenase); purified HPGD, NADH fluorescence kinetic, PGE2 substrate; Potency, µM, for inactives: top-dose activity change, negative = inhibition, hits mostly inhibitors; 4.3% of 150,000 active; AID 894, 2007; 15-hydroxyprostaglandin dehydrogenase [NAD(+)] (Homo sapiens), P15428; active = well fitted inhibition curve with a large enough effect (not every such curve was filed as active); inconclusive = small, poorly fitted or top-dose-only effect, or another doubt; inactive = no such curve, though single readings can be large or run the other way;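 further: top concentration of the series not given in the record; plate controls included wells without enzyme; inactives centre near -10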
Target sequence (P15428 whole entry, looked up): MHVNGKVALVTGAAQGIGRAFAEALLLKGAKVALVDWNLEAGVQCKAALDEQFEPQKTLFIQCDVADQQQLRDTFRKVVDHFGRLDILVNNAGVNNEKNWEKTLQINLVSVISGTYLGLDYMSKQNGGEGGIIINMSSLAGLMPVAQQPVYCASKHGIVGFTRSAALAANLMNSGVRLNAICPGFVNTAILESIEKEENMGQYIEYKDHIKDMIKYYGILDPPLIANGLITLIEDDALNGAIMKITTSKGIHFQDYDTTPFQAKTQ
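NADH formation kinetics: reaction with 30 uM PGE2 and 1 mM NAD+ (final), 20 nM enzyme, Tris-HCl pH 8 with Tween 20, after 15 min compound preincubation at room temperature. Fluorescence change, last versus first of five reads.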
Active calls of the source: *; ? = inconclusive. On the % scale 0 is the no-effect control and ±100 the full control effect; potency means the concentration at half of the fitted maximal effect. The list is partial, so the mix of outcomes need not match the whole.

| smiles | HPGD inh |
| --- | --- |
| COc1cccc(C(=O)Nc2nc3ccccc3[nH]2)c1 | -12.2% |
| Cc1cccc(CN2CCC(CNC(=O)C3CCCN(S(=O)(=O)c4cnc[nH]4)C3)CC2)c1 (stereo unspecified) | -14.3% |
| CCOc1cc2[nH]c(=S)n(CCOC)c(=O)c2cc1OCC | -17.7% |
| CCN1CCCC1CNC(=O)CSCc1nc(-c2ccccc2C)oc1C (stereo unspecified) | -1.1% |
| COC(CNC(=O)c1ccc2c(c1)nc(C)n2-c1cccc(F)c1)OC | 11.2µM* |
| COC(=O)Cn1c(=NC(=O)c2sc3ccccc3c2Cl)sc2cc(S(N)(=O)=O)ccc21 | ? |
| CC(=O)c1c(O)ccc2c(-c3ccccc3)cc(=O)oc12 | ? |
| CCCn1c(N)c(C(=O)CSc2nnc(C)n2Cc2ccccc2)c(=O)n(C)c1=O | -1.0% |
| CCOC(=O)c1cnn(-c2ccc(C)cc2)c1N | -12.3% |
| COc1ccc(-c2cc(C(=O)Nc3cc(OC)c(OC)c(OC)c3)no2)cc1OC | -12.7% |
| O=C(O)c1ccccc1OCCOCCOc1ccccc1C(=O)O | -1.6% |
| O=C(O)CN1C(=O)SC(Nc2ccc(C(=O)O)cc2)C1=O (stereo unspecified) | -9.7% |
| Cc1ccc(NS(=O)(=O)c2ccc(NC(=O)c3cccs3)cc2)c(C)c1 | -10.0% |
| O=C1c2ccccc2C(=O)c2cc(S(=O)(=O)Nc3ccccc3)ccc21 | -6.3% |
| COc1ccccc1/C=N/n1c(C)nnc1-n1nc(C)cc1C | -2.9% |
| CCn1c(CNC(=O)c2cccs2)nnc1SCC(=O)NCCc1ccccc1 | -16.3% |
| CCOC(=O)c1sc(-c2ccc(Br)cc2)cc1N | -26.5% |
| COc1cccc(/C=C2\SC(=S)NC2=O)c1OS(=O)(=O)c1ccc(NC(C)=O)cc1 | 25.1µM* |
| CCC(=O)N1C(C(=O)N2CCCC2)CSC1c1ccc(OC)cc1 (stereo unspecified) | -7.1% |
| CC1CCc2cc(F)ccc2N1C(=O)c1ccncc1 (stereo unspecified) | -4.9% |

(continued)
| smiles | HPGD inh |
| --- | --- |
| COc1cc(NC(=O)COC(=O)CSc2ccccc2F)c(C)cc1[N+](=O)[O-] | -8.6% |
| COC(=O)CCC(=O)OC1(C)C(=O)C=C2C=C(C3CC3)N(CCCCO)C=C2C1=O (stereo unspecified) | 1.4% |
| CCCOc1ccc(-c2nnc(N)s2)cc1 | -10.6% |
| Cc1cc([N+](=O)[O-])nn1CCCC(=O)N1CCN(c2ccc(F)cc2)CC1 | -4.6% |
| Cc1nnc(Nc2ccc(C(=O)NCCO)cc2)c2ccccc12 | -17.7% |
| O=c1c(=NNc2ccccc2Cl)c(=O)c2ccccc12 | -7.7% |
| Cc1c(NC(=O)CN2CCN(C(=O)c3ccco3)CC2)c(=O)n(-c2ccccc2)n1C | -7.6% |
| COC(=O)c1ccc(OC(=O)c2cccnc2)cc1 | -0.7% |
| CCCCC(C(=O)OCC(=O)c1ccc(OC)cc1)N1C(=O)c2ccccc2C1=O (stereo unspecified) | -17.7% |
| Nn1c(SCC(=O)Nc2ccc3c(c2)OCO3)nnc1-c1cccc(Cl)c1 | -6.3% |
| Cc1ccc(C)c(SCC(=O)NCc2ccco2)c1 | 7.94µM* |
| CC(C)Cn1cc(C(=O)NCCCOC(C)C)c2c3ccccc3n(C)c2c1=O | ? |
| Cn1c(CSc2ccccc2)c(C#N)c2ccccc21 | -20.6% |
| Cc1ccc(N=Cc2c(O)n(-c3cc(Cl)ccc3N3CCOCC3)c(=O)c3ccccc23)cc1C | -14.9% |
| CN1CCN(NC(=O)c2ccc(Br)c(S(=O)(=O)N3CCOCC3)c2)CC1 | -15.4% |
| COc1cc2cnncc2cc1OC | -1.8% |
| Cc1cccc(NS(=O)(=O)c2ccc(C3CCCCC3)cc2)n1 | ? |
| CN(C)S(=O)(=O)c1cc(NC(=O)CSc2ncc(C(F)(F)F)cc2Cl)ccc1Cl | -25.1% |
| Cc1ccc(NC(=O)Cc2sc(C)nc2-c2ccc(C)cc2)cc1 | -6.8% |
| CCN(CC)S(=O)(=O)c1cc(C(=O)Nc2ccc(Cl)cn2)ccc1C | -22.1% |

Later entries:
| smiles | HPGD inh |
| --- | --- |
| CN(C)S(=O)(=O)N1CCN(C(=O)c2ccccc2)CC1 | -5.6% |
| O=C(COC(=O)Cc1cccc(C(F)(F)F)c1)Nc1ccc2c(c1)OCCO2 | -12.8% |
| COc1ccccc1OCC(=O)NCC1CCCCC1 | ? |
| Cc1ccc2nc(NC(=O)CN(C)S(=O)(=O)c3cccc4nsnc34)sc2c1 | -0.5% |
| CCC(=O)c1cc2c(C)cc(=O)oc2c(C)c1O | -11.6% |
| CSc1nc(O)c(C2OC(=O)c3ccccc32)c(=O)[nH]1 (stereo unspecified) | -6.4% |
| CCOC(=O)C1=C(C)N=C2SC(C(=O)OC)=CC(=O)N2C1c1cccc(OC)c1 (stereo unspecified) | -46.6% |
| Cc1cccc(NC(=O)CSc2ccc(C(N)=O)cc2[N+](=O)[O-])c1C | -11.3% |
| COC(=O)c1c(N)c2ccccc2[nH]c1=O | ? |
| CC(C)c1cc(C(=O)Nc2cc(Br)ccc2O)no1 | 8.91µM* |
| COc1ccc(-c2nc(CC(=O)O)cs2)cc1OC | ? |
| COC(=O)c1sccc1NC(=O)c1cc(C)on1 | ? |
| COc1ccc(OCCOC(=O)c2cccs2)cc1 | -29.7% |
| Cc1cc(C)n(-c2ccc(OCC(=O)O)nn2)n1 | -13.7% |
| O=c1[nH]c2ccc(Cl)cc2c(-c2ccccc2)c1CN1CCOCC1 | -2.5% |
| Fc1ccc(CN2CCCCCCC2)c(F)c1 | 5.1% |
| Cc1c(NC(=O)COC(=O)c2c3c(nc4ccccc24)CCCC3)c(=O)n(-c2ccccc2)n1C | -9.7% |
| Cc1ccc(C(C)C)c(OC(=O)/C=C/c2ccccc2)c1 | -8.7% |
| NC(=O)C1=CN(C2OC(COP(=O)(O)OP(=O)(O)OC[C@H]3O[C@@H](n4cnc5c(N)ncnc54)[C@H](OP(=O)(O)O)[C@H]3O)C(O)C2O)C=CC1 (stereo partly specified) | -18.4% |
| CN1c2ccccc2C(C)(C)C12C=Nc1c(ccc3ccccc13)O2 (stereo unspecified) | -13.0% |

Next section.
| smiles | HPGD inh |
| --- | --- |
| COc1cc(C2C(C#N)=C(N)Oc3c2ccc2ccccc32)ccc1OCC(=O)Nc1ccc(C)cc1 (stereo unspecified) | -8.1% |
| CCn1c(SCC(=O)NC(C)(C)C)nnc1-c1ccccn1 | -19.0% |
| O=c1c2ccccc2nc(-c2ccccc2)n1Cc1ccc(Cl)cc1 | -13.2% |
| CCC(C)(NC(=O)c1ccccn1)C(=O)NC1CCCCC1 (stereo unspecified) | -21.2% |
| CN1C(=O)CC(N2CCN(C(=O)c3ccccc3)CC2)C1=O (stereo unspecified) | -7.6% |
| CN1CCN(C2CC(=O)N(c3ccc4c(c3)OCCO4)C2=O)CC1 (stereo unspecified) | -4.0% |
| COc1ccc(N(CC(=O)Nc2ccc3c(c2)OCO3)S(C)(=O)=O)c(OC)c1 | -11.2% |
| CCS(=O)(=O)c1ccc(O)c(NC(=O)Nc2ccccc2)c1 | -13.8% |
| O=C(Cn1cnc2c(nnn2Cc2ccc(Cl)cc2)c1=O)OCc1ccccc1 | 12.6µM* |
| CC1(C)C2(C#N)C(N)=NC3(OCCO3)C12C#N (stereo unspecified) | -8.5% |
| O=C(O)c1ccc(CSc2ncn[nH]2)cc1 | -8.0% |
| c1ccc(SCCSc2ccccc2)cc1 | -11.5% |
| C[C@@H](O)[C@H]1C(=O)N2C(C(=O)O)=C(S[C@@H]3CN[C@H](C(=O)N(C)C)C3)[C@H](C)[C@H]12 | -9.0% |
| COC(=O)NC1CSCC1OC(=O)CN1C(=O)c2ccccc2C1=O (stereo unspecified) | -6.4% |
| COC(=O)Cn1c2c(c3cc(C)ccc31)CCCC2 | -10.3% |
| CC(C)OC(=O)c1cn(-c2ccccc2)nc1-c1ccco1 | -24.2% |
| O=C(O)C1C2C=CC(O2)C1C(=O)Nc1ccc(S(=O)(=O)N2CCc3ccccc32)cc1 (stereo unspecified) | -21.6% |
| CCOc1c(C(N)=O)c(-c2ccccc2)c2c(=O)[nH]c3ccccc3n12 | -26.0% |
| CN(C)c1cc[nH]c(=O)c1C#N | -3.9% |
| c1ccc2c(c1)nc1n2C2(N3CCOCC3)CCCC2C1N1CCOCC1 (stereo unspecified) | -8.2% |

Remaining list, next part.
| smiles | HPGD inh |
| --- | --- |
| C=CCn1c(SCC(N)=O)nnc1-c1cc(Br)ccc1O | -11.0% |
| NC(=O)NC(c1ccccc1)c1cccc2ccccc12 (stereo unspecified) | -9.4% |
| CCCCC/C=C\C/C=C\C/C=C\C/C=C\CCCCCC(=O)O | -14.4% |
| CC1C2CCC3C4CC=C5CC(N(C)C)CC[C@@]5(C)C4CC[C@@]32CN1C (stereo partly specified) | -2.6% |
| Cn1c(N/N=C2\CCCc3ccccc32)nc2c1c(=O)n(Cc1ccc(F)cc1)c(=O)n2C | ? |
| Nc1nc(NCCO)nc(NCC2CCCO2)c1[N+](=O)[O-] (stereo unspecified) | -8.8% |
| O=[N+]([O-])c1cc(F)c(N2CCOCC2)cc1N1CCCCC1 | -3.9% |
| O=C(c1cccc(F)c1)N1CCC2(CC1)CN(c1ccncc1)C2 | -4.0% |
| Clc1ccc(-c2nnc3n2CCCS3)cc1 | -24.1% |
| CCN(CC)C(=S)SCC(=O)Nc1nc(=O)c2ccccc2s1 | -8.2% |
| CCOC(=O)NC(Nc1ccc(S(N)(=O)=O)cc1)(C(=O)OCC)C(F)(F)F (stereo unspecified) | -14.3% |
| Clc1ccc2nc(-c3ccccc3)c(CN3CCOCC3)n2c1 | -12.0% |
| Clc1ccc(C(c2nnnn2C2CCCCC2)N(Cc2cccnc2)Cc2ccco2)cc1 (stereo unspecified) | -13.9% |
| O=C(CC1SCCNC1=O)Nc1cc(Cl)cc(Cl)c1 (stereo unspecified) | -13.9% |
| CO[C@@H]1[C@@H]2OP(=O)(O)OC[C@H]2O[C@H]1n1c(Sc2ccc(Cl)cc2)nc2c(N)ncnc21 | -4.4% |
| COc1ccccc1-c1noc(CCC(=O)Nc2ccccc2Cl)n1 | 25.1µM* |
| COC(=O)Cn1ncn2cccc2c1=O | -7.6% |
| COc1ccc(CN2C(=O)c3ccccc3C(/C=N\OCc3ccc(F)cc3)C2=O)cc1 (stereo unspecified) | -13.7% |
| O=S(=O)(Cc1ccccc1)N1CCCCC1 | 31.6µM* |
| C/C(N)=C(/C#N)C(=O)COC(=O)c1cc(-c2ccc(C)cc2)nc2ccccc12 | ? |

Rewritten with the structure last: part of the list above
HPGD inh,Structure
-12.0%,Clc1ccc2nc(-c3ccccc3)c(CN3CCOCC3)n2c1
31.6µM*,O=S(=O)(Cc1ccccc1)N1CCCCC1
-24.1%,Clc1ccc(-c2nnc3n2CCCS3)cc1
-13.9%,O=C(CC1SCCNC1=O)Nc1cc(Cl)cc(Cl)c1 (stereo unspecified)
-4.0%,O=C(c1cccc(F)c1)N1CCC2(CC1)CN(c1ccncc1)C2
?,C/C(N)=C(/C#N)C(=O)COC(=O)c1cc(-c2ccc(C)cc2)nc2ccccc12
-8.2%,CCN(CC)C(=S)SCC(=O)Nc1nc(=O)c2ccccc2s1

Other compounds:
| smiles | HPGD inh |
| --- | --- |
| O=S(=O)(Nc1ccc2c(c1)oc1ccccc12)N1CCCC1 | ? |
| COc1ccc(CC(=O)Nc2ccc(-c3nnc(-c4ccccc4)o3)cc2)cc1OC | ? |
| Cc1ccc(C)c(N(C)S(=O)(=O)c2ccc3[nH]cc(C(=O)NCCN4CCOCC4)c(=O)c3c2)c1 | ? |
| COc1ccc(OC2C(=O)N(Cc3ccc(F)cc3)C2c2ccc(OC)c(OC)c2)cc1 (stereo unspecified) | -3.0% |
| O=C(N/N=C/c1c(O)ccc2ccccc12)c1cccc(C(F)(F)F)c1 | ? |
| CSCC[C@H](NC(=O)c1ccc(Cl)c([N+](=O)[O-])c1)c1nc2ccccc2[nH]1 | 0.5% |
| COc1cc(-n2cnnn2)ccc1S(=O)(=O)N1CCOCC1 | -6.5% |
| CCCOc1ccc(-c2nn(-c3ccccc3)cc2/C=C2\SC(N)=NC2=O)cc1 | ? |
| C#CCOCCOCCOCCNc1nc(N2CCN(C(=O)Cn3cc(CCCCN)nn3)CC2)nc(N2CCN(C(=O)Cn3cc(CC(C)O)nn3)CC2)n1 (stereo unspecified) | 4.2% |
| COCCCN=Cc1c(C)[nH]n(-c2ccc(Br)c(C)c2)c1=O | -6.4% |
| O=C1C2C3CCC(C3)C2C(=O)N1Cc1ccco1 (stereo unspecified) | -1.3% |
| O=C(Cc1nc(=O)c2ccccc2s1)Nc1ccccc1 | -15.5% |
| CC1=C(C(=O)Nc2cc(C)ccn2)C(c2cnn(C)c2)C2=C(CC(c3ccccc3)CC2=O)N1 (stereo unspecified) | ? |
| COc1cc(/C=N/NC(=O)CN2CCCCC2)ccc1OCc1ccc(Br)cc1 | -19.3% |
| Cc1cn(S(=O)(=O)c2ccc(Br)c3ccccc23)cn1 | 3.0% |
| CCOC(=O)c1[nH]cnc1C(=O)NC1CCCCC1 | 3.4% |
| NC1=NC2CS(=O)(=O)CC2S1 (stereo unspecified) | -8.9% |
| CCOc1ccc(C2CC(c3ccc(CC)cc3)Nc3nc(N)nn32)cc1 (stereo unspecified) | -8.2% |
| O=C(CCc1nc2ccccc2c(=O)[nH]1)NC1CCN(Cc2ccccc2)CC1 | -8.0% |
| O=C(c1cc(C(F)(F)F)cc(C(F)(F)F)c1)N1CCC2(CCCN(c3ncccn3)C2)CC1 | -20.6% |
| CCOC(=O)c1c(NC(=O)CC2SC(N)=NC2=O)sc2c1CCC(C)C2 (stereo unspecified) | -24.4% |
